MT1-MMP act inh: blocks activation of human MT1-MMP. P50281. HT1080 RFP-PRO-GFP cells, GFP/RFP ratio fluorescence, overnight; percent of plate control window, DMSO zero. GFP/RFP ratio change, % at 20 µM. hit rate 0.061% among 360,000. AID 651647;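 active = GFP/RFP ratio change of at least 30% with cell ATP level not reduced by more than half and red fluorescence within 50% of control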; note: strong numbers were not always called active
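Assay system: HT1080 cells carrying an RFP-PRO-GFP reporter | Dosing: Single dose of 20 µM compound, 1% DMSO final | Incubation: Cells overnight before dosing, compound overnight, 37 °C, 5% CO2 | Evaluation: GFP/RFP fluorescence ratio | Control set: DMSO and RFP-L50D-GFP cell wells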
HIV Env fusion: blocks HIV Env-driven cell-cell fusion | HeLa-JRFL Env/CEM21 cell fusion, luciferase | inhibition, % at 12.3 µM | hit rate 1.1% among 360,000 | AID 651610;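 active = mean replicate inhibition score of at least 50 and every replicate individually at or above 50; inconclusive = only one of the two criteria met; inactive = mean below 50 and not all replicates reaching 50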;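 note: 0% = plate neutral controls and 100% = maraviroc near 300 nM; one replicate is shown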
Rce1 inhib: blocks yeast Ras-converting enzyme | yeast membranes, quenched prenylated peptide cleavage fluorescence | calls only | hit rate 0.27% among 290,000;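 active = fall in fluorescence gain of 50% or more versus controls, with final raw signal at or below 3038400; inconclusive = same 50% fall but final raw signal above 3038400; inactive = fall in fluorescence gain under 50%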;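 note: plate controls were neutral control wells for no effect and wells lacking membranes for full effect; tested at 10 µM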
Target sequence (Q03530 whole entry, looked up): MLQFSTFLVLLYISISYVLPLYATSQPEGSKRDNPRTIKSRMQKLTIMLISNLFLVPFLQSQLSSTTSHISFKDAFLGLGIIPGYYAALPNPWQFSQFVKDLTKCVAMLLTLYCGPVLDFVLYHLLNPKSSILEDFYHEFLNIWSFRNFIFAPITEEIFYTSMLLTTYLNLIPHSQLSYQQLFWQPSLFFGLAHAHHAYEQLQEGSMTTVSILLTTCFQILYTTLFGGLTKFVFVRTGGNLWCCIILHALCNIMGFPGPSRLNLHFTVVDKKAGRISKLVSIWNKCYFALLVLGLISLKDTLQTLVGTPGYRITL
Yeast UUG start: alters start codon recognition fidelity in yeast; hit rate 0.13% among 350,000; activity score, % at 18.7 µM; S. cerevisiae UUG-firefly luciferase reporter, luminescence/redox ratio; AID 602363;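 active = replicate mean at a twofold rise or more, about +100% in these data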;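 note: firefly luciferase made from a UUG start codon reports start codon fidelity; reporter light over untreated wells divided by growth signal over untreated wells; some hits fall short of that in this replicate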
eIF4H FP inh: inhibitors of RNA binding by human eIF4H; hit rate 0.94% among 290,000; AID 2012; eIF4H fluorescence polarization binding assay; inhibition, % at 35 µM; Q15056;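 active = 50% or more with normal probe brightness, or confirmed in later tests; inconclusive = above 50% with abnormal brightness, or retests that disagree; inactive = below 50% or failed in later tests; about a fifth of its hits are not listed in these tables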;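 note: calls also rest on retests at 20 µM and on dose response follow-up; 0% = protein and probe with vehicle and 100% = probe without protein; strong numbers were not always called active; many hits fall short of the cut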
PABP polyA inh: PABP-poly(A) binding inhibition; PABP-poly(A) RNA binding, fluorescence polarization; P11940; AID 2014; inhibition, % at 35 µM; hit rate 1% among 290,000;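 active = 50% or more with normal probe brightness, or confirmed in later tests; inconclusive = above 50% with abnormal brightness, or retests that disagree; inactive = below 50% or failed in later tests; about a fifth of its hits are not listed in these tables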;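 note: calls also rest on retests at 20 µM and on dose response follow-up; controls were probe without protein and protein plus probe with vehicle; some compounds called inactive have numbers as strong as hits; many hits fall short of the cut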
CSC inhib: blocks cancer stem cells. hit rate 1.1% among 300,000. cancer stem cell-like cells viability, luminescence. inhibition, % at 7.5 µM;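 active = mean at 75% or more and at least half the replicates too; inconclusive = mean and replicates disagree; tested in HMLE shEcad cells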;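 note: 0% = median of negative and 100% = median of positive control wells; the first replicate is given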
MT1-MMP act inh RFP: further read-out of MT1-MMP act inh, marked with its call; RFP signal change, %; measured here: RFP expression control read;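 0 = vehicle wells; hits needed this value within 50% of zero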
An asterisk follows results filed as active; i = inactive; u = inconclusive; x = no result given. The order is random (roughly 2.9% active in at least one column).

#	molecule	MT1-MMP act inh	MT1-MMP act inh RFP	HIV Env fusion	Rce1 inhib	Yeast UUG start	eIF4H FP inh	PABP polyA inh	CSC inhib
1	C[C@@H]1CCCCCCCCC(=O)OCCN(C(=O)OC(C)(C)C)[C@H](C)CCCCCCCCC(=O)OCCN(C(=O)OC(C)(C)C)[C@H](C)CCCCCCCCC(=O)OCCN(C(=O)OC(C)(C)C)[C@H](C)CCCCCCCCC(=O)OCCN1C(=O)OC(C)(C)C	-4	1	8	x	-3	x	x	x
2	CC(C)CCn1c(COc2ccccc2)nn(CCC#N)c1=S	0	-2	8	i	-16	-15	7	0
3	O=C(NCCCc1ccccc1)Nc1ccccc1	1	6	-39	i	-10	4	-10	0
4	CCN(Cc1ccccc1)Cc1ccc(OCc2ccccc2)cc1	-1	-3	10	i	-14	2	14	36
5	CN(C)Cc1n[nH]c(=O)c2ccccc12	6	10	-4	i	x	5	5	1
6	Cc1ccc(OCCCCN(C)Cc2ccccc2)c(Br)c1	-1	-4	24	i	-3	7	9	94*
7	O=C(c1cccc(-c2ccco2)c1)N1CCCC(N2CCN(c3ccc(F)cc3)CC2)C1 (stereo unspecified)	2	-8	15	i	-11	5	4	-3
8	Cc1ccc(-n2ncc(N(C)C)c(Cl)c2=O)cc1	-2	3	x	i	x	-4	-8	-7
9	O=[N+]([O-])c1ccc(S(=O)(=O)Nc2ccc(S(=O)(=O)N3CCCC3)cc2)cc1	-3	-2	6	i	-1	-1	-5	x
10	O=C(c1ccco1)N1N=C(c2ccc(Br)cc2)CC1c1ccco1 (stereo unspecified)	1	-11	x	x	-29	x	x	23
11	Cc1ccc(NC(=O)Cn2c(-c3ccc(F)cc3)cnc2SCC(=O)Nc2c(C)cccc2C)cc1	2	4	x	i	-22	-6	28	-11
12	O=C1c2sc3nc4c(c(=O)n3c2C(=O)N1c1ccccc1)CCC4	-2	-5	x	i	-11	5	-3	3
13	CC(=O)Nc1cccc(-c2csc(Nc3ncccn3)n2)c1	x	x	-13	i	x	-9	-9	x
14	COC(=O)CCN(C(=O)c1ccc([N+](=O)[O-])cc1)c1ccccn1	1	1	10	i	x	-10	6	-9
15	CN(C)CCCN(C(=O)c1cccs1)c1nc2cc3c(cc2s1)OCO3	-5	-4	4	i	4	2	9	-2
16	CC(CN1C(C)CCCC1C)OC(=O)c1ccc(Cl)cc1Cl (stereo unspecified)	2	4	20	i	x	0	14	4
17	CC(=O)Nc1ccc2nc(CN3CCC(CO)(CCc4ccccc4)CC3)ccc2c1	18	4	-28	i	7	-1	-3	-10
18	Cc1ccc(NC(=O)c2cc(-c3cccs3)nc3ccccc23)nc1	-3	-6	-3	i	x	-4	4	19
19	Cc1ccc(NS(=O)(=O)c2cc(C(=O)N3CCCC3)ccc2C)cc1C	3	-1	8	i	3	1	-11	-21
20	O=C(NCC(c1ccco1)N1CCc2ccccc21)c1cccc([N+](=O)[O-])c1 (stereo unspecified)	-1	-5	16	i	-1	x	x	-3
21	COCCCNCC(=O)c1c(N)n(Cc2ccccc2)c(=O)n(C)c1=O	-1	3	-18	i	-7	1	7	8
22	CSc1ccccc1OCc1cc(C(=O)N2CCNC(=O)C2)no1	3	-1	-13	i	0	-3	2	0
23	COc1ccc2c(COC(=O)c3cccc(S(=O)(=O)NCC(C)C)c3)cc(=O)oc2c1	0	-2	-10	i	-15	-7	-5	0
24	CCOC(=O)C1=C(O)C(=O)N(Cc2ccc(C(C)(C)C)cc2)CC1	0	2	5	i	x	1	5	-1
25	CC(C)CN(C(=O)COC(=O)c1c2c(nc3ccccc13)CCC2)c1c(N)n(Cc2ccccc2)c(=O)[nH]c1=O	-18	-13	-28	i	-9	3	19	-5
26	CCC1CCc2sc(C(=O)N(C)CC(=O)Nc3ccc(OC)cc3)cc2C1 (stereo unspecified)	0	-1	2	i	x	x	x	13
27	Clc1ccc(-c2nnc(NCCN3CCCC3)c3ccccc23)cc1	-3	-4	18	i	-3	-4	-8	-13
28	OCCNCCCCCOc1ccc(F)cc1	-3	3	-32	i	-19	1	6	6
29	CCCC(=O)c1c(NC)cc(C)oc1=O	3	3	-26	i	-18	1	4	-9
30	COC(=O)C(Cc1ccccc1)NC(=O)CNS(=O)(=O)c1ccc(Br)cc1 (stereo unspecified)	-2	-1	15	i	-17	3	6	-9
31	CCN1C(=O)c2cccc3c(S(=O)(=O)N4CCC(C)CC4)ccc1c23	18	9	x	x	12	x	x	-12
32	COc1cccc(NC(=O)COC(=O)c2c(F)cccc2F)c1	1	4	-20	i	-14	2	10	2
33	COc1cc(CNCCCN2CCOCC2)ccc1OCC(=O)Nc1cccc(C(F)(F)F)c1	9	-2	-20	i	-11	-10	4	7
34	Cc1cccc(NC(=O)CCN2C(=O)C3C4CCC(C4)C3C2=O)c1C (stereo unspecified)	-4	0	-13	i	-4	3	4	-9
35	Cc1ccc(S(=O)(=O)NCCCC(=O)C=[N+]=[N-])cc1	15	2	x	x	-11	-10	0	-12
36	COc1ccc(CN(CCC(c2ccc(F)cc2)C2CCOC(C)(C)C2)C(=O)c2ccco2)cc1 (stereo unspecified)	-17	-13	15	i	1	-2	-11	27
37	Cc1ccccc1NC(=O)c1cc(S(=O)(=O)N2CCOCC2)ccc1F	2	2	-16	i	-10	1	1	-4
38	CS(=O)(=O)N(CC(=O)NCc1cccnc1)Cc1ccc(Cl)cc1	1	6	x	i	-21	8	1	-9
39	Cc1nn(C)c(-c2n[nH]c(=S)n2Cc2ccco2)c1Cl	6	4	-10	i	-19	15	2	-3
40	COc1ccc(C(=O)NCCNc2nc3cc(C)c(C)cc3cc2C)cc1	6	3	9	i	-16	5	7	33
41	O=C(c1ccc(Cl)cc1)N1CCC(=O)N(C(CO)Cc2ccccc2)CC1 (stereo unspecified)	0	7	3	i	0	x	x	x
42	CS(=O)(=O)c1ccc(Cl)c(NC(=O)C2CCN(S(=O)(=O)c3cccs3)CC2)c1	3	-2	x	x	-14	x	x	-13
43	COc1ccc(-c2noc(CNC(=O)c3ccc4c(c3)OCO4)n2)cc1OC	-1	-3	8	i	-12	-6	2	-3
44	CSc1nnc(C(C)(C)C)c(=O)n1/N=C/c1ccccc1O	3	4	6	i	x	-12	-8	-13
45	CC[C@@]12C(=O)N(c3cccc(Br)c3)C(=O)N1[C@H](c1cccc(C)c1)[C@@H]1C(=O)N(Cc3ccccc3)C(=O)[C@@H]12	-1	-9	65*	i	-7	x	x	-1
46	C/C(=N\NC(=O)C1CCCC1)c1ccc(C(C)C)cc1	9	9	-73	i	-5	-1	0	14
47	Cc1ccc(OCCOCCn2ccnc2)c(Br)c1	-1	-2	x	i	-11	2	-8	5
48	O=C(COc1ccc(Cl)cc1Cl)NCCN1CCCCC1	3	3	2	x	-16	x	x	x
49	O=c1oc2cc(Oc3ccc(C(F)(F)F)cc3[N+](=O)[O-])ccc2c2c1CCC2	5	-1	41	i	-7	-1	2	x
50	CCc1ccc(C2=NN(CCC(=O)NC3CC3)C(=O)CC2)cc1	x	x	x	i	x	-9	-2	-10
51	Cc1noc(C)c1COc1ccc(C(=O)OCC(=O)NCc2ccccc2Cl)cc1	2	4	-25	i	-6	-8	-8	-5
52	Cc1cc(C)c2nc(N3CCC(C(=O)N4CCN(c5ncccn5)CC4)CC3)sc2c1	6	-7	x	i	-2	2	6	6
53	Cc1cccc(CNc2ccc(C(CC(N)=O)NC(=O)Cc3cccc4ccccc34)cc2[N+](=O)[O-])c1 (stereo unspecified)	5	0	-30	i	0	-4	2	u
54	CN(C)c1ccc(-c2nn3c(-c4cccnc4)nnc3s2)cc1	x	x	x	i	x	-6	6	3
55	CC1=C(C(=O)N2CCCC(N3CCN(c4ccccc4F)CC3)C2)OCCO1 (stereo unspecified)	2	1	7	i	-9	-7	-13	2
56	O=S(=O)(NCc1ccccc1)c1ccc(Br)c2nsnc12	-16	3	-6	i	-18	6	19	-2

Later entries.
#	molecule	MT1-MMP act inh	MT1-MMP act inh RFP	HIV Env fusion	Rce1 inhib	Yeast UUG start	eIF4H FP inh	PABP polyA inh	CSC inhib
57	Cn1c(Cc2cccc3ccccc23)nnc1SCC(=O)N1CCN(c2ccccc2)CC1	x	x	63*	i	-6	-12	3	2
58	COc1ccccc1CN1CCCC(N2CCN(c3ccc(F)cc3)CC2)C1 (stereo unspecified)	-1	0	9	i	4	4	2	46
59	CC(C)Cn1c(=O)c2c(nc3n2CCCN3Cc2ccccc2)n(C)c1=O	4	-5	20	i	15	-4	0	-4
60	COc1ccc(NC(=O)c2ccc(S(=O)(=O)N3CCOCC3)cc2)c(OC)c1	3	1	-27	i	9	-1	4	-10
61	CCOC(=O)c1nnc2c(Br)c(-c3ccccc3)nn2c1C	-3	-1	-175	i	-8	-8	4	-11
62	COCCN(C(=O)CN1CCc2ccccc21)c1c(N)n(Cc2ccccc2)c(=O)[nH]c1=O	-15	3	x	x	5	x	x	9
63	Cc1cc(C)nc(N2CCCC(C(=O)NCCc3ccccc3F)C2)n1 (stereo unspecified)	-3	-2	x	i	-1	-10	-10	-8
64	COc1cccc(CN2CCNC(=O)C2CC(=O)NCCc2nc(C)c(C)s2)c1OC (stereo unspecified)	-3	4	13	i	x	11	11	-7
65	COC(=O)c1cn(C(C)C(=O)NCc2ccco2)c2ccccc12 (stereo unspecified)	-1	0	-14	i	-9	-5	12	-12
66	CCn1cc(CN2CCCC(CNS(=O)(=O)c3ccc(OC)cc3)C2)cn1 (stereo unspecified)	-7	0	-21	i	-13	-6	3	x
67	Cc1cc(=O)[nH]c(SCCCOc2ccc3c(c2)CCC3)n1	-3	-1	-42	i	1	6	9	x
68	COc1ccc(NC(=O)c2cccnc2)c([N+](=O)[O-])c1	0	2	-60	i	x	-2	-1	61
69	CN(C)c1cc[n+](CC(=O)Nc2cccc([N+](=O)[O-])c2)cc1	0	0	-5	i	-21	-5	-10	-18
70	Cc1cc(C(=O)CSc2cccc[n+]2[O-])c(C)n1-c1ccc(OC(F)F)cc1	-4	-24	9	i	x	-4	6	13
71	O=C(CNC1CCCCC1)NCC1(c2ccccc2)CCCC1	0	0	16	i	x	-4	35	10
72	CC(C)Nc1ccc(C(CC(N)=O)NC(=O)Cc2ccc(Cl)cc2)cc1[N+](=O)[O-] (stereo unspecified)	10	12	9	i	-8	-6	0	5
73	C/C(=N\NC(=O)c1nnn(-c2nonc2N)c1-c1cccs1)c1ccncc1	-9	-6	2	i	-21	-2	6	-5
74	O=c1cc(-c2ccccc2)nc(SCc2ccccc2)[nH]1	-1	2	x	i	x	3	-1	-12
75	CCOc1[nH]n(-c2ccccc2)c(=O)c1C=Nc1ccccc1	-1	-8	5	i	-4	7	-2	27
76	CSc1c(SCc2ccccc2)cnn(Cc2ccccc2)c1=O	4	0	-5	i	-2	15	6	2
77	c1ccc(Cn2nnnc2C(c2cccnc2)N2CCN(c3ccccc3)CC2)cc1 (stereo unspecified)	3	-4	28	i	-18	-2	-3	7
78	Cc1ccc(CCN2CCN=C2Nc2ccccc2)cc1	4	5	5	x	-17	x	x	0
79	CN(C)Cc1c(-c2ccc(Cl)cc2)nc2ccccn12	1	-1	-28	i	-10	-9	2	-21
80	Cc1cc(N/C=C\c2nnnn2-c2ccc(F)cc2)no1	-15	-5	6	i	-14	-7	-2	x

Arranged by value in MT1-MMP act inh RFP (low to high): 3 from the list above.
| # | SMILES | MT1-MMP act inh | MT1-MMP act inh RFP | HIV Env fusion | Rce1 inhib | Yeast UUG start |
| --- | --- | --- | --- | --- | --- | --- |
| 75 | CCOc1[nH]n(-c2ccccc2)c(=O)c1C=Nc1ccccc1 | -1 | -8 | 5 | i | -4 |
| 79 | CN(C)Cc1c(-c2ccc(Cl)cc2)nc2ccccn12 | 1 | -1 | -28 | i | -10 |
| 78 | Cc1ccc(CCN2CCN=C2Nc2ccccc2)cc1 | 4 | 5 | 5 | x | -17 |

Bioassay records as filed in PubChem BioAssay.
